# Source: PubChem BioAssay (several laboratories)
# Arbovirus inh: antivirals against arbovirus infection. inhibition, % at 10 µM. AID 1251. arbovirus infection cell-based antiviral screen. 200,000 compounds, 0.37% hits;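 active = inhibition from about 30%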;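 note: bluetongue infection of BSR cells; cell survival read as ATP light after 72 h; 0% = infected wells without compound and 100% = uninfected wells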
# RecA intein inh: inhibitors of M. tuberculosis RecA intein splicing | P9WHJ3 | cell-free RecA intein splicing, fluorescence | inhibition, %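 (about 9 µM by stock and volumes)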 | 290,000 compounds, 0.75% hits | AID 2221; in the data active = inhibition above about 30%; inconclusive = no clear call, values can overlap the other calls;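 note: 0% = vehicle wells and 100% = reference inhibitor control wells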
# Target sequence (P9WHJ3 whole entry, looked up): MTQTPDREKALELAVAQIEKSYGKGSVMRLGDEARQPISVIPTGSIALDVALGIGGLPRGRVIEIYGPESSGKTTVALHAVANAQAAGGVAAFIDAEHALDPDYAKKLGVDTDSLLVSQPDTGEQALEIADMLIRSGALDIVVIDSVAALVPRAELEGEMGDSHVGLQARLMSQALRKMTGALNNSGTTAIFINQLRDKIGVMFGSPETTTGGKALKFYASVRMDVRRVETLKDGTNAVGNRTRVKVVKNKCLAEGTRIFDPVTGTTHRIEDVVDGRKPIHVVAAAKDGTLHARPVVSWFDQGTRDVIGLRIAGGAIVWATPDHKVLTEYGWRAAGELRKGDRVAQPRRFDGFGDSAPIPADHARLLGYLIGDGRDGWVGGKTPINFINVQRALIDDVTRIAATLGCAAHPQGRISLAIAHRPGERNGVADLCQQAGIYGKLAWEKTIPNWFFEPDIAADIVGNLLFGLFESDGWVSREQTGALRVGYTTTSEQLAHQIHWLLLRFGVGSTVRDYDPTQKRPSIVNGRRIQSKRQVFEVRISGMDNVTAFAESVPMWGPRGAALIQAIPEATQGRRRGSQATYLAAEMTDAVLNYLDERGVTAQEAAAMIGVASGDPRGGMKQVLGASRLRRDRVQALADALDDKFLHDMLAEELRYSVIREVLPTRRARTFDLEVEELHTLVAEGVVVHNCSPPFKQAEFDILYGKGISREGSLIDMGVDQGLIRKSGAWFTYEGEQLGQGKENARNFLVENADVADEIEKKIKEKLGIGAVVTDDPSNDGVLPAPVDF
# Mtb bLac sens: beta-lactam sensitization of Mtb H37Rv. inhibition, % at 25 µM. M. tuberculosis H37Rv growth with meropenem, percent inhibition; hits of this screen are not shown here. 330,000 compounds, 0.27% hits;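 active = about 74% or more and at least 40 points above the plate without the antibiotic, then above 30% in a dose series; inconclusive = first-round hits that could not be retested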;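 note: growth measured after seven days incubation then overnight dye step; 0% = bacteria only wells and 100% = bacteria with antibiotic; twin plates without the antibiotic show which effects depend on it; some results filed as inactive read as strong as hits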
# Mtb growth: M. tuberculosis H37Rv growth inhibitors, H37Rv strain (AID 1626). 220,000 compounds, 0.95% hits. M. tuberculosis H37Rv growth inhibition; higher % means a stronger effect. one-dose inhibition, % at 10 µM; IC50 in µM for titrated hits;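 active = confirmed in a dose series; inconclusive = inhibition above 80% but not taken into the dose series; inactive = below 80% or under 30% at every dose of the series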;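 note: bacteria incubated seven days before Alamar blue readout; 0% = bacteria only wells and 100% = bacteria with antibiotic wells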
# YopH inh: YopH (Yersinia) phosphatase inhibition; fluorescence Ex485/Em525; inhibition, %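 (about 10 µM by stock and volumes)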; 140,000 compounds, 0.16% hits; AID 898;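 active = inhibition of 50% or more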;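 note: controls were vehicle for no effect and minimum signal wells for full effect; inactives centre near -20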
# Arbovirus inh repeat: recorded beside Arbovirus inh, whose call it bears; inhibition, %; measured here: 10K subset replicate screen; many hits read low in the repeat;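 first of two repeat runs on a subset; 0% = infected and 100% = uninfected wells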
# Numbers without * were called inactive; i = inactive; ? = inconclusive; . = no result given. An excerpt. The share of hits here may be higher or lower than overall.
SMILES,Arbovirus inh,RecA intein inh,Mtb bLac sens,Mtb growth,YopH inh,others
COC(=O)/C(=N\Nc1ccccc1)Sc1nnc(-c2ccc(OC)cc2)n1C,-8.3,1.8,2.6,-4.5%,-18.1,
C1CCc2c(nnc3c2-c2nonc2CC3)C1,7.1,-2.0,-4.5,-4.9%,-35.3,
CCCn1c2c(c(O)c(C(=O)Nc3nc(C)cs3)c1=O)CCCC2,11.8,1.3,.,-1.7%,4.9,
CCc1nc(NCC2CCCO2)c(C#N)c2c1COC(C)(C)C2 (centres undefined),-7.3,-2.3,-2.6,-4.5%,-15.5,
COc1ccc(Br)cc1CN1CCN(S(=O)(=O)Cc2ccccc2)CC1,.,0.8,2.7,.,.,
COc1ccc(CNCc2ccc(C(F)(F)F)cc2)cc1OC,.,-0.5,-0.7,.,.,
C=CCNC(=O)N1CCC(n2nccc2NC(=O)CCc2ccccc2)CC1,.,0.9,4.3,.,.,
Cc1ccnc(NS(=O)(=O)c2ccc(NC(=O)C3CCCO3)cc2)n1 (centres undefined),1.5,-0.8,6.1,2.1%,-52.5,
O=C(c1cc(C(=O)N2CCCC2)cc([N+](=O)[O-])c1)N1CCCC1,.,2.1,0.7,.,.,
CCSc1ccccc1C(=O)NCCCn1ccnc1,2.8,2.2,-10.5,-3.1%,-25.6,
Cc1ccccc1Nc1ncccc1C(=O)N1CCOCC1,-2.0,-0.4,1.6,-1.3%,-23.1,
CCCCCCC(CC(=O)NCc1cccnc1)CC(=O)NCc1cccnc1,.,-0.8,-7.1,.,.,
Cc1cc(C)c2nc3nc(C)c(C)cc3c(N)c2c1,-38.8,i,.,-2.3%,.,
CCCCCC(=O)NC(=S)NC1C2CC3CC(C2)CC1C3 (centres undefined),.,9.1,-1.8,15.0%,.,
Cc1ccc(Oc2ccc(-c3nnc(-c4ccccc4)o3)cc2[N+](=O)[O-])cc1C,11.2,.,.,0.6%,-35.1,
COc1ccc(/C=C2\CN(Cc3ccccc3)C/C(=C\c3ccc(OC)cc3)C2=O)cc1,-31.2,.,1.0,8.5%,-47.6,
C=C(C)Cn1c(COc2ccccc2)nnc1SCC(=O)O,2.0,-0.6,-6.4,-4.9%,-28.0,Arbovirus inh repeat=4.2
Fc1ccc(C(OCCN2CCCC2)c2ccc(F)cc2)cc1,3.8,-0.2,-0.1,3.3%,-25.0,
Cc1ccccc1S(=O)(=O)Oc1cccc2c(O)cccc12,.,4.3,2.1,.,.,
Cn1c(=O)c2c(nc(Cl)n2Cc2ccncc2)n(C)c1=O,6.7,-0.2,8.2,-6.7%,-24.9,
CCC(C)NC(=O)c1cccc(C)c1 (centres undefined),.,-0.8,-3.9,-7.3%,.,
CCOc1ccc(CCNC(=O)COC(=O)COc2ccc(C(C)=O)cc2)cc1OCC,.,-3.7,-11.2,.,.,
Cc1ccc(OCCNC(=O)c2cc(C(=O)NCCOc3ccc(C)cc3)cc([N+](=O)[O-])c2)cc1,8.0,1.5,3.0,2.0%,-20.0,
CCO[C@H]1OC(C(=O)N2CCN(C)CC2)=C[C@@H](C(C)(C)C)[C@@H]1CCCO,5.6,-2.4,-9.4,-16.7%,.,
Cc1cccc(OCCCC(=O)Nc2ccc(Br)cc2)c1,2.1,1.1,-3.8,-2.9%,-34.6,

# Overlap with the part before: 2 compounds; new compounds follow.
SMILES,Arbovirus inh,RecA intein inh,Mtb bLac sens,Mtb growth,YopH inh,others
CCO[C@H]1OC(C(=O)N2CCN(C)CC2)=C[C@@H](C(C)(C)C)[C@@H]1CCCO,5.6,-2.4,-9.4,-16.7%,.,
Cc1cccc(OCCCC(=O)Nc2ccc(Br)cc2)c1,2.1,1.1,-3.8,-2.9%,-34.6,
CN(CCCCCCCCC(=O)/C=N/O)Cc1ccccc1,0.1,0.0,5.0,5.7%,-18.9,
COc1ccc(N2CCN(C(=O)CCS(=O)(=O)c3cccc4nsnc34)CC2)cc1,-0.4,-0.4,-4.4,-4.1%,-30.9,Arbovirus inh repeat=0.1
Cc1ccc(C2=N/C(=C\c3c(C)nn(-c4ccccc4)c3N3CCCC3)C(=O)O2)cc1,-7.1,0.3,94.8,11.2%,-9.5,
CCOc1ccc(CCNC(=O)CSc2nc3ncc(Cl)cc3[nH]2)cc1OCC,.,-2.3,-2.6,.,.,
O=C(NCCNC(=O)C(c1ccccc1)c1ccccc1)c1ccco1,-4.7,.,3.9,-9.9%,-49.2,
CCCCc1nnc(NC(=O)COc2ccc3c(C)cc(=O)oc3c2)s1,.,-2.5,-3.5,-14.4%,.,
CC(=O)c1cccc(Nc2cc(C)nc3c(C)cccc23)c1,.,2.1,-6.0,-4.9%,.,
CC12CCC(C(=O)N/N=C/c3ccc(O)cc3)(OC1=O)C2(C)C (centres undefined),.,-0.8,3.1,-12.2%,.,
CCOC(=O)NC(=O)COC(=O)c1cccc2ccccc12,2.1,0.9,-0.3,2.4%,.,
N#CC1=C(N)SC(N)=C(C#N)C1c1ccc(C(F)(F)F)cc1,-10.3,-2.5,-3.0,4.9%,14.6,
O=C(CCCn1c(=S)[nH]c2cc3c(cc2c1=O)OCO3)NCc1cccc(Cl)c1,.,-2.6,4.4,.,.,
O=C(NCc1ccc2c(c1)OCO2)c1cnc2ccccn2c1=O,12.7,0.1,-10.3,-8.8%,-36.2,
Cc1ccc(NC2c3ccccc3C(=O)N2c2cccnc2)cc1 (centres undefined),.,0.6,-1.5,1.3%,.,
O=C(c1ccc(Cl)cc1)C(CN1CCCC1)c1ccccc1 (centres undefined),.,3.8,100.2,.,.,
Cc1ccn2c(NC(=O)c3ccccc3)c(-c3ccccc3)nc2c1,.,-2.9,-1.3,.,.,
COc1ccc(C(=O)Nc2cc(C)on2)cc1[N+](=O)[O-],-6.3,0.6,-0.6,-7.0%,.,
O=C(CCn1c(=O)oc2ccc(Cl)cc21)N1CCN(c2ccccc2)CC1,.,1.3,-3.8,.,.,
CC1CCc2c(sc(NC(=O)CSc3nc4c(c(C(F)(F)F)n3)CCc3ccccc3-4)c2C(N)=O)C1 (centres undefined),10.5,0.2,4.1,-0.3%,7.0,
COc1ccc(CNC(=O)c2cnc(C)cn2)c(OC)c1,0.1,-1.7,?,-4.5%,-39.7,
CC1(C)CC(OC(=O)c2ccccc2)CC(C)(C)N1,6.9,-1.4,11.1,-12.4%,-19.0,
COc1ccc(-c2cc3ccccc3oc2=O)cc1,.,-1.3,3.6,.,.,
C/C(=N/NC(=O)CNC(=O)COc1ccccc1)c1ccco1,-5.3,-0.1,-1.3,0.8%,-15.0,
C=CCOc1ccc(CNc2nccs2)cc1OCC,-9.2,0.1,-29.1,-2.4%,-23.8,
COc1ccc(-c2nc(C)ncc2-c2csc(C)n2)c(O)c1,9.1,0.8,-8.5,0.5%,-22.4,
O=C(c1ccc2c(c1)OCO2)N1CCN=C1SCc1ccccc1,-5.4,.,0.8,1.5%,-9.6,
SMILES,Arbovirus inh,RecA intein inh,Mtb bLac sens,Mtb growth,YopH inh,others
COC(=O)C1=C(c2cccc(OC)c2OC)C[C@@H]2CC[C@H]1N2C(=O)N1CCCCC1,.,0.7,0.2,-2.9%,.,
CCOC(=O)CSC1=C(C#N)C(c2ccccc2OCC)C(C(=O)OCC)C(=O)N1 (centres undefined),-8.2,0.3,-4.2,-11.0%,-5.4,
O=C(CCN1C(=O)c2ccccc2C1=O)Nc1cccc(F)c1,-2.3,-0.1,9.3,-11.0%,5.6,
CCOC(=O)C(C(=O)OCC)c1c([N+](=O)[O-])c(=O)n2c3c(cccc13)CCC2,.,-6.7,0.6,.,.,
Cc1cc(=O)oc2cc(OCC(=O)NCC3CCC(C(=O)O)CC3)ccc12 (centres undefined),.,0.9,-5.4,.,.,
O=C(Cc1ccccc1)N1CCC2(CC1)NCCc1[nH]cnc12,.,0.5,-3.1,.,.,
O=C(c1nc2ccc(Cl)cn2c1CNCC[C@@H]1C[C@@H]2C=C[C@H]1C2)N1CCCCCCC1,-33.5,7.3,38.1,9.4%,.,
CCNC(=O)COC(=O)c1cc(=O)[nH]c2ccccc12,1.5,-5.8,-6.7,6.1%,-11.6,
COc1ccc(C2=NN(C(=O)CSc3ncccn3)C(c3ccc(OC)cc3)C2)cc1 (centres undefined),8.1,4.9,-3.0,11.7%,-11.0,
CCOC(=O)N1CCC(Nc2cc(C)nc3c(-c4ccccc4OC)c(C)nn23)CC1,6.9,2.7,55.6,.,-20.7,Arbovirus inh repeat=1.3
O/N=C/c1ccc2ccccc2n1,.,1.2,-5.4,0.1%,.,
O=S(=O)(NC1c2cccc3cccc(c23)C1N1CCN(CCO)CC1)c1ccccc1 (centres undefined),-27.0,1.0,.,1.1%,-27.1,
COc1ccc(C(CC(=O)Nc2ccccn2)N2Cc3ccccc3C2=O)cc1 (centres undefined),.,2.2,-10.3,.,.,
CCOC(=O)C(C)Sc1nc(-c2cccs2)ccc1C#N (centres undefined),-5.4,5.7,93.5,13.9%,-37.9,
Cc1cnc(C(=O)OCC(=O)NCc2ccccc2)cn1,6.9,0.9,-3.3,-4.1%,-10.9,
O=C(Nc1ccnc(-c2ccncc2)n1)c1ccc(Cl)cc1,-0.1,-1.2,-5.3,-4.0%,.,
CC(NS(=O)(=O)c1ccc(N)cc1)C1CC2CCC1C2 (centres undefined),.,-0.8,0.3,.,.,
Cc1ccccc1Cn1c(-c2ccc(=O)[nH]c2)nc2ccccc21,.,2.1,2.5,.,.,
CCN(c1ccccc1)S(=O)(=O)c1ccc(N)cc1,0.7,.,-1.6,0.0%,-49.7,Arbovirus inh repeat=-6.3
COc1ccc(NC(=O)c2ccc(-n3nc(C)cc3C)cc2)cc1OC,12.8,-0.5,-14.4,4.1%,-100.2,
Brc1ccc(-c2csc(Nc3nc(-c4ccc(Br)cc4)cs3)n2)cc1,.,2.1,4.5,7.5%,.,
CN/N=C/c1ccc(C#N)cc1,5.2,-1.2,-13.8,-3.8%,.,
CCOc1ccc2sc(NS(=O)(=O)c3ccc(OC)c(OC)c3)nc2c1,7.8,0.1,-9.9,-7.0%,-2.6,
CCN(CC)C(=O)C(Oc1ccc(C)nc1[N+](=O)[O-])c1ccccc1 (centres undefined),.,-0.3,-0.6,.,.,
O=c1cc(Cl)[nH]n(-c2ccccc2)c1=O,.,0.4,-1.1,.,.,
O=C(COC(=O)c1cncc(Br)c1)NCc1ccc(F)cc1,-1.5,-0.8,-2.8,-0.9%,.,

# Structures from the list above with a nitro group on carbon, in the order listed:
SMILES,Arbovirus inh,RecA intein inh,Mtb bLac sens,Mtb growth,YopH inh,others
O=C(c1cc(C(=O)N2CCCC2)cc([N+](=O)[O-])c1)N1CCCC1,.,2.1,0.7,.,.,
Cc1ccc(Oc2ccc(-c3nnc(-c4ccccc4)o3)cc2[N+](=O)[O-])cc1C,11.2,.,.,0.6%,-35.1,
Cc1ccc(OCCNC(=O)c2cc(C(=O)NCCOc3ccc(C)cc3)cc([N+](=O)[O-])c2)cc1,8.0,1.5,3.0,2.0%,-20.0,
COc1ccc(C(=O)Nc2cc(C)on2)cc1[N+](=O)[O-],-6.3,0.6,-0.6,-7.0%,.,
CCOC(=O)C(C(=O)OCC)c1c([N+](=O)[O-])c(=O)n2c3c(cccc13)CCC2,.,-6.7,0.6,.,.,
CCN(CC)C(=O)C(Oc1ccc(C)nc1[N+](=O)[O-])c1ccccc1 (centres undefined),.,-0.3,-0.6,.,.,
